Sfp inh: inhibitors of Bacillus subtilis Sfp phosphopantetheinyl transferase; Biochemical Sfp PPTase activity, qHTS; Q9F4F7; 3.5% of 310,000 active; Potency, µM, without a hit: max response, negative = inhibition, actives largely listed as inhibitors; active means well fitted inhibition curve with a large enough effect; inconclusive means small, poorly fitted or top-dose-only effect, or another doubt; inactive means no such curve, though single readings can be large or run the other way;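 further: the enzyme is Sfp with the accession as filed and its product quenches rhodamine fluorescence; potency means the concentration at half of the fitted maximal effect; 0% = enzyme reaction without inhibitor and -100% = no enzyme wells; top concentration of the series not given in the record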
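With Hepes-Na pH 7.6 buffer containing 10 mM MgCl2, Sfp (15 nM) modified BHQ-2-YbbR (12.5 uM) using rhodamine-CoA (5 uM). Two reads 30 minutes apart at 525/598 nm yielded each well's rate.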
gsp ag: activates gsp, the McCune-Albright syndrome mutation; gsp mutant cells, cAMP HTRF, 30 min; control for the full effect not named in the record; Potency, µM (titrated, usually from 76.9 µM), without a hit: at the top dose activation (cAMP increase), usual class: activators; 0.13% of 340,000 active; active = well fitted activation curve with a large enough effect; inconclusive = small, poorly fitted or top-dose-only effect, or another doubt; inactive = no such curve, though single readings can be large or run the other way; cell line not stated here;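 further: phosphodiesterase inhibitor Ro 20-1724 added with compounds to block cAMP breakdown; potency means the concentration at half of the fitted maximal effect; nearly all actives have a fitted effect of over 60% in size; about a fifth of the inactives were tested at one dose only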
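Cells stably selected in G418 were plated at 2000/well, grown 16-24 hr, then given compounds in DMSO with the PDE inhibitor […] (300 uM solution added) for 30 min at 37C; cAMP was read by HTRF.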
Menin-MLL FL inh: inhibitors of human menin-MLL interaction, wild-type MLL peptide. 290,000 tested, under 10 active. FP activity change, % at 61.4 µM. AID 1766. Fluorescence polarization, fluorescein-MLL peptide displacement from menin; inconclusive = falling polarisation curve, or a change in total fluorescence; inactive = total fluorescence flat and polarisation flat or rising; no compound was filed as active; the % refers to the polarisation; negative = inhibition;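 further: % of control where 0% means no effect; inhibitors lower the polarisation; unlabelled MLL peptide was the positive control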
gsp antag: antagonizes gsp, the McCune-Albright syndrome mutation | AID 624288 | 0.4% of 340,000 active | Potency, µM (highest dose often 76.9 µM), for the others: at the highest dose activity change, negative = inhibition, actives largely listed as inhibitors | gsp-mutant cells, cAMP HTRF, 30 min; control for the full effect not named in the record; active = falling curve of any shape with a large fitted effect; inconclusive = falling curve, mostly with a smaller effect; inactive = flat or rising curve; cell line not stated here;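 further: intracellular cAMP measured with PDE inhibitor Ro 20-1724 present during compound exposure; potency means the concentration at half of the fitted maximal effect; on the % scale 0 is the no-effect control and ±100 the full control effect; nearly all actives have a fitted effect of over 65% in size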
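Measurement of cellular cAMP by homogeneous time-resolved fluorescence following a 30 min compound exposure at 37C. The PDE inhibitor […] was present throughout; the assay buffer was DPBS with 0.05% BSA and 0.005% Tween 20.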
TRPV1 PAM: enhances activation of the human vanilloid receptor TRPV1 | Q8NER1 | TRPV1-expressing cells, Fluo-8 calcium influx, capsaicin EC20 potentiation; host cell line not named in the record; control for the full effect not named in the record | potentiation, % at 8.33 µM | 0.02% of 320,000 active | AID 540277; active means potentiation above 80%; inconclusive means 30% to 80%; inactive means below 30%; further: 0% is about no effect
Target sequence (Q8NER1 whole entry, looked up): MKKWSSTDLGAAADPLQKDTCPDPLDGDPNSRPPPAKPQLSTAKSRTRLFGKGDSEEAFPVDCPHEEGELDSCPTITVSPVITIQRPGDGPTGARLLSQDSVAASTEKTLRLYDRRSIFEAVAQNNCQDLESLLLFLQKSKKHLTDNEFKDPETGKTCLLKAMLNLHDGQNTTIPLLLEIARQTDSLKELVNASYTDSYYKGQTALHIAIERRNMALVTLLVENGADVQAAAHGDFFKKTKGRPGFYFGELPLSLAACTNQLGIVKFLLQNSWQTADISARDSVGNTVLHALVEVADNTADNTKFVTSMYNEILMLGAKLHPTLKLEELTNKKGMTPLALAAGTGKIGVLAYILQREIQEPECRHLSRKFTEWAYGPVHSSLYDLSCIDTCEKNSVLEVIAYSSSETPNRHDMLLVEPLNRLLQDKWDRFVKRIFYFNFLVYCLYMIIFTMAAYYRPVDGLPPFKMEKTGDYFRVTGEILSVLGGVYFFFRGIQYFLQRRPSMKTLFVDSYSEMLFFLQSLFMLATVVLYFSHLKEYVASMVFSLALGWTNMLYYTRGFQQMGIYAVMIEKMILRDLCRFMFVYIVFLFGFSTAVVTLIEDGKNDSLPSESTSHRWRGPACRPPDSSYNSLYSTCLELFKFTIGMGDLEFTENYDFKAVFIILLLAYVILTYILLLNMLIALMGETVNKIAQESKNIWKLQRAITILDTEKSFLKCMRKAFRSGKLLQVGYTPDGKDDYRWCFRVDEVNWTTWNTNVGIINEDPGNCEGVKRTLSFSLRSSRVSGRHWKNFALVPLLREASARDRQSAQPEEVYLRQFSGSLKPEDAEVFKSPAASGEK
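Fluo-8 calcium influx in TRPV1-expressing cells, kinetic read (ex 480/em 520 nm). Compound added and read 3 min for agonist activity, followed by capsaicin at EC20 final and 2 min further read for enhancement.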
ClpP mod: qHTS Assay for Activators of ClpP; purified B. subtilis ClpP, FRET peptide cleavage, 20 min; AID 651965, 2013; Potency, µM (highest dose often 57.5 µM), without a hit: at the highest dose activity change, negative = active; 1.9% of 340,000 active; active = well fitted falling curve with a large enough effect; inconclusive = small, poorly fitted or top-dose-only effect; inactive = no such curve, though single readings can be large or run the other way; further: potency means the concentration at half of the fitted maximal effect; the source files actives as falling curves though it sought activators and does not explain the sign; nearly all actives have a fitted effect of over 65% in size; many hits overshoot -100%
Target sequence (P80244 whole entry, looked up): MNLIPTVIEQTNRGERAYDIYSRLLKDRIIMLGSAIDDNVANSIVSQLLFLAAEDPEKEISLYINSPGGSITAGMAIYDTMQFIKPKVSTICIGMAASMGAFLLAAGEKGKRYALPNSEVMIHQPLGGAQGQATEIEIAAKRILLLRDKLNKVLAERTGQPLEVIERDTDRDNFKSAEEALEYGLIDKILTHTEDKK
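FRET quenching reversal measured ClpP activation: 10 microg/mL B. subtilis ClpP at pH 8 with the FRET-FV decapeptide, read at 430 nm after 320 nm excitation. The 20-min minus 0-min signal was scaled between DMSO/no-enzyme wells and ADEP (5.8 microM final).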
CtBP-E1A inh: inhibitors of CtBP/E1A interaction. activity change, % (concentration not given with the values). AlphaScreen GST-E1A/His-CtBP binding, 1536-well; active compounds read low; control for the full effect not named in the record. 0.49% of 340,000 active; in the data active means activity change below about -65%; inconclusive means about -30% to -65%; inactive means above about -30%; further: on the % scale 0 is the no-effect control and ±100 the full control effect
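GST-E1A and His-tagged CtBP (125 nM each as 5X stock) were preincubated with pin-transferred compound for 2 h at 37 °C in the dark, then glutathione donor and nickel acceptor beads were added for 1 h before AlphaScreen reading.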
* hit, by the source's call; ? = inconclusive; / = not tested or not shown; & = joins results of further samples; [ ] = another dose, or the depositor's remark.

entry	Compound	Sfp inh	gsp ag	Menin-MLL FL inh	gsp antag	TRPV1 PAM	ClpP mod	CtBP-E1A inh
1	CCOc1ccc(C2C3=C(Nc4nc(N)[nH]c(=O)c42)c2ccccc2C3=O)cc1 (stereo not given)	-21%	-2%	2.8	6%	-26	-3.5%	-4
2	C/C(=N\NC(=O)Cc1c(F)cccc1Cl)c1cccnc1	-5%	26%	2.4	-1%	2	3.1%	4
3	Cc1ccc([C@@H]2[C@@H]3C(=O)N(C)C(=O)[C@@H]3[C@@H]3C(=O)Nc4ccccc4C(=O)N23)cc1	0%	/	-9.6	-7%	-1	-12%	-13
4	CCOc1ccc(-n2c(=O)[nH]c3sc4c(c3c2=O)CCCC4)cc1	6%	20%	2.6	1%	15	-0.8%	-1
5	O=C(CN1C(=O)NC2(CCCCCC2)C1=O)N1CCCCC1	/	19%	/	-2%	2	-1.2%	/
6	O=C1CCC/C=C/C[C@H](CC(=O)N(CCO)Cc2ccccc2)C(=O)N[C@@H](Cc2ccccc2)CO1	/	32%	/	12%	/	-0.8%	0
7	COc1ccc(CN2C(=O)NC3(CCCC3)C2=O)cc1F	15%	15%	0.6	3%	-5	/	0
8	CO/N=C/C(c1ncc(C(F)(F)F)cc1Cl)S(=O)(=O)c1ccccc1 (stereo not given)	-1%	-1%	3.3	12%	-4	1.7%	9
9	Brc1ccccc1-c1nc(-c2ccccc2)no1	3%	/	3.3	/	9	/	/
10	COc1ccccc1OCC(=O)NCCC1=CCCCC1	19%	-19%	/	10%	-4	1.6%	6
11	Cc1cccc(OCc2nc(C#N)c(N3CC(C)CC(C)C3)o2)c1 (stereo not given)	?	-11%	0.7	-19%	-5	1.2%	-28
12	CC(C)(Oc1ccc(Cl)cc1)C(=O)Nc1cccnc1	15%	-14%	4.1	-10%	-14	1.0%	-3
13	O=C1CC(N2CCOCC2)C(=O)N1CCc1ccccc1 (stereo not given)	13%	-8%	2.6	6%	-1	-0.5%	1
14	O=C(NCCN1CCN(Cc2ccccc2)CC1)c1ccc(CS(=O)(=O)c2c(Cl)cccc2Cl)o1	/	-79%[inhibitor]	/	/	/	3.1%	9
15	O=S(=O)(NCC1COc2ccccc2O1)c1ccc2ccccc2c1 (stereo not given)	-10%	8%	4.0	-19%	-9	-5.2%	8
16	CC1CC(C)CN(S(=O)(=O)c2cc(C(=O)O)c(Cl)s2)C1 (stereo not given)	-2%	-10%	3.0	-4%	4	2.9%	7
17	COc1ccc(OC)c(Cc2nnc(CCC(=O)N3CCN(C4CCCC4)CC3)o2)c1	-1%	1%[15.4 µM]	-1.0	-1%	2	-0.1%	17
18	CS(=O)(=O)Nc1ccc(C2=NN(C(=O)c3ccco3)C(c3ccccc3F)C2)cc1 (stereo not given)	-13%	-32%	5.1	28µM*	-28	-25%	-3
19	Cc1cccc(NC(=O)NCC2CCN(c3ccc(S(=O)(=O)N4CCOCC4)cc3)CC2)c1	0%	-48%[inhibitor]	2.7	-25%	-1	/	-3
20	COC(=O)c1c(NC(=O)COC(=O)[C@@H](NS(=O)(=O)c2cccc(Cl)c2)C(C)C)sc2c1CCC2	-13%	12%	2.0	-17%	22	-27%	-1
21	O=C(COc1ccc(Cl)cc1)Nc1cc(NC(=O)COc2ccc(Cl)cc2)cc(C(=O)O)c1	27%	18%	-0.2	-1%	9	-3.3%	/
22	COc1cc(/C=C2\SC(=Nc3ccc(O)cc3)NC2=O)cc(OC)c1O	11%	-9%[15.4 µM]	?	-9%	-7	/	-65*
23	CN(C)C(=O)c1cc(C(=O)c2ccccc2Br)c[nH]1	12%	-2%	-0.6	2%	-8	-1.5%	/
24	CN(C)S(=O)(=O)c1cccc(C(=O)NCCNC(=O)c2cccc(S(=O)(=O)N(C)C)c2)c1	7%	-81%[inhibitor]	0.5	14%	19	-2.2%	3
25	CCCSc1nnc(NC(=O)CCc2ccccc2)s1	7%	4%	-3.7	-6%	0	-3.1%	/

Limited to gsp ag (2 entries from above):
No.	SMILES	gsp ag
24	CN(C)S(=O)(=O)c1cccc(C(=O)NCCNC(=O)c2cccc(S(=O)(=O)N(C)C)c2)c1	-81%[inhibitor]
25	CCCSc1nnc(NC(=O)CCc2ccccc2)s1	4%

More entries:
entry	Compound	Sfp inh	gsp ag	Menin-MLL FL inh	gsp antag	TRPV1 PAM	ClpP mod	CtBP-E1A inh
26	COC(=O)Oc1ccc(/C=N/NS(=O)(=O)c2ccccc2)cc1OC	17%	-59%[inhibitor]	-1.1	-6%	?	/	3
27	CCOC(=O)C1(Cc2cccc(Cl)c2)CCCN(C(=O)CCNC(C)=O)C1 (stereo not given)	21%	-6%[15.4 µM]	1.4	-18%	-9	0.6%	0
28	CCCn1c(=O)[nH]c(=O)c2c1nc(-c1ccc(OC(F)F)cc1)n2CCN1CCOCC1	0%	6%	-1.3	-7%	-21	-7.8%	8
29	O=C(NCc1ccccn1)c1cccc(NS(=O)(=O)c2cccc(Cl)c2)c1	12%	8%[15.4 µM]	6.9	0%	6	2.9%	-10
30	CC1=C(C(=O)NC2CCCc3c2cnn3-c2ccc(F)cc2F)OCCO1 (stereo not given)	7%	9%	/	-8%	-4	-3.5%	-2
31	N#Cc1sc2nc(-c3ccccc3)cc(-c3ccco3)c2c1N	79µM*	-4%[15.4 µM]	?	11%	8	1.1%	5
32	Cc1cccc(N2CC(C(=O)Nc3ccc(S(=O)(=O)N4CCOCC4)cc3)CC2=O)c1 (stereo not given)	-10%	-20%	2.8	-6%	-8	/	10
33	COc1cc(OC)c(S(=O)(=O)Nc2ccccc2NC(=O)CN2CCOCC2)cc1NC(C)=O	5%	-6%	-2.1	10%	-1	-1.6%	1
34	O=C(CNC(=O)c1ccc(F)cc1)N/N=C/c1cc(Br)ccc1OCc1ccccc1	10%	21%	8.9	?	1	-5.1%	/
35	CCCCC(=O)N/N=C/c1ccc(-c2ccc([N+](=O)[O-])cc2)o1	-11%	-4%[15.4 µM]	11	-14%	-4	/	0
36	COc1ccc(-c2nn(-c3ccccc3)cc2/C=C/C(=O)N2CCN(c3ccccn3)CC2)cc1	18%	-4%[15.4 µM]	-2.8	-23%	14	-15%	-25
37	CCC1C(C#N)=C(SCC(N)=O)NC2=C1C(=O)CC(C)(C)C2 (stereo not given)	8%	2%[15.4 µM]	3.2	-10%	1	-1.2%	6
38	O=C(NC1CC2CCCC(C1)N2C(=O)Nc1ccccc1F)C1CC1 (stereo not given)	6%	-15%[15.4 µM]	-1.2	10%	5	/	3
39	Cc1cccc(OCC(O)CN2CCN(S(=O)(=O)c3ccc(C)cc3C)CC2)c1 (stereo not given)	1%	-7%	-2.7	-2%	1	/	-4
40	CCCNC(=O)Cn1c(=O)/c(=C/c2ccc(-c3cccc([N+](=O)[O-])c3)o2)s/c1=C\C(=O)C(C)(C)C	/	-41%[inhibitor]	/	-8%	/	-6.3%	-2
41	Fc1ccc(-c2ccc(NCCN3CCOCC3)nn2)cc1	19%	-19%	-0.8	13%	-11	/	10
42	COc1ccc(C(=O)Nc2ccc(-n3nncc3C(C)(C)C)cc2)cc1	-4%	-13%[15.4 µM]	-2.6	-4%	-7	/	-7
43	C=CCc1ccc(O)c(-c2ccc(O)c(CC=C)c2)c1	-10%&3%&2%	/	2.8&4.0&0.9	3%	-11	-5.5%	-6
44	COc1ccc(C(CNC(=O)c2ccc(S(=O)(=O)Nc3ccc(F)cc3)cc2)N(C)C)cc1 (stereo not given)	7%	-4%[15.4 µM]	1.6	0%	-5	/	-2
45	Cc1ccc2nc(NC(=O)c3ccc(Cl)s3)sc2c1	-6%	?	1.8	1%	6	-15%	3
46	c1ccc(C2=Nc3cccc4cccc(c34)N2)cc1	-6%	6%	?	12%	?	1.7%	-10
47	O=C1OC2(c3ccccc31)c1cc(I)c(O)c(I)c1Oc1c2cc(I)c(O)c1I	14µM*	/	?	/	-23	/	/
48	COc1cc(/C=C2/C(=N)N3OC(C)=CC3=NC2=O)ccc1OCCOc1ccc(C)cc1	10%	?	2.7	3%	/	-7.6%	0
49	O=C(O)CCCCCNCc1ccncc1	-5%	23%	-1.8	4%	2	-0.1%	7
50	COc1ccc(S(=O)(=O)NCC(c2ccc(C)cc2)N2CCN(C)CC2)cc1OC (stereo not given)	/	8%[15.4 µM]	/	16%	3	-1.2%	7
51	CC(=O)N1CCc2cc(S(=O)(=O)CCC(=O)NCc3ccco3)ccc21	13%	-5%	0.0	10%	10	0.6%	0
52	COc1ccccc1Cc1nc2ccccc2n1S(=O)(=O)c1ccc(Cl)cc1	7%	-1%	-1.2	-20%	9	1.1%	15
53	COc1cccc(CN(C)C(=O)Cc2c[nH]c3ccccc23)c1OC	8%	3%[15.4 µM]	/	-14%	10	-3.1%	0
54	CC(C)c1ccc(C(=O)Nc2ccc(N3CCOCC3)cc2)cc1	12%	0%	4.3	-4%	-33	-3.2%	1
55	CCCN1CCc2c(sc(NC(=O)c3ccc(S(=O)(=O)N4CCCC4)cc3)c2C(N)=O)C1	-1%	8%	?	-4%	3	-3.4%	3

Random excerpt: 2 entries already listed
entry	Compound	Sfp inh	gsp ag	Menin-MLL FL inh	gsp antag	TRPV1 PAM	ClpP mod	CtBP-E1A inh
20	COC(=O)c1c(NC(=O)COC(=O)[C@@H](NS(=O)(=O)c2cccc(Cl)c2)C(C)C)sc2c1CCC2	-13%	12%	2.0	-17%	22	-27%	-1
22	COc1cc(/C=C2\SC(=Nc3ccc(O)cc3)NC2=O)cc(OC)c1O	11%	-9%[15.4 µM]	?	-9%	-7	/	-65*
